miR-21 reporter – miR-21 reporter, rising signal | HeLa miR-21 FLuc reporter, luciferase, 48 h | Potency, µM (doses to about 38.3 µM), for inactives: at the top dose reporter change, positive = more light | 340,000 tested, under 10 active; active = well fitted rising curve with a large enough effect; inconclusive = small, poorly fitted or top-dose-only effect; inactive = no such curve, though single readings can be large or run the other way;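 also: % of control where 0% means no effect; miR-21 action dims this reporter so a rising signal means less miR-21 action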
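HeLa cells stably expressing CMV-driven firefly luciferase with a downstream miR-21 binding sequence, endogenously expressing miR-21, were treated with titrations (up to about 40uM final) for 48 hours at 37 degree Celsius. Luciferase luminescence was read after lysis.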
Rango release inh – prevents RanGTP from dissociating the Rango-importin beta complex; 0.071% of 340,000 active; Biochemical FRET Rango-importin beta, RanGTP-induced dissociation; O95149+P62826; Potency, µM (titrated, usually from 46.1 µM), without a hit: at the top dose activity change, negative = inhibition; active means falling FRET ratio curve, often poorly fitted, with flat reads before Ran was added; inconclusive means other falling curves, or compound fluorescence or quenching; inactive means flat or rising ratio curve;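 also: potency is read from the fitted curve at half-maximal effect; % of control where 0% means no effect; nearly all actives have a fitted effect of over 45% in size; -100% = wells without RanGTP and RCC1; the record marks most hits as doubtful in a second field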
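Recombinant Rango FRET biosensor (EYFP–snurportin 1 IBB–cerulean CFP10) at 0.1 uM premixed with 0.25 uM importin beta in PBS, 1 mM DTT, 0.02% Tween-20, 0.1% BSA. Compound added 5 min; RanGTP-RCC1 (0.6 uM Ran, 2 mM GTP, 0.2 uM RCC1) then triggers release, read at 45 min.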
GLA inh pH 4.5 – inhibitors of human alpha-galactosidase A at pH 4.5 | P06280 | purified enzyme, 4-MU-alpha-Gal fluorescence, pH 4.5 | activity change, negative = inhibition, % at 105 µM | AID 1467 | 230,000 tested, under 10 active; inconclusive = small, poorly fitted or top-dose-only inhibition, or a rising curve; inactive = flat fitted curve, though single readings scatter; no compound was filed as active;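 also: 0% = full activity with enzyme and -100% = basal without enzyme; dose as in the result columns while the protocol names 77 µM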
Target sequence (P06280 whole entry, looked up): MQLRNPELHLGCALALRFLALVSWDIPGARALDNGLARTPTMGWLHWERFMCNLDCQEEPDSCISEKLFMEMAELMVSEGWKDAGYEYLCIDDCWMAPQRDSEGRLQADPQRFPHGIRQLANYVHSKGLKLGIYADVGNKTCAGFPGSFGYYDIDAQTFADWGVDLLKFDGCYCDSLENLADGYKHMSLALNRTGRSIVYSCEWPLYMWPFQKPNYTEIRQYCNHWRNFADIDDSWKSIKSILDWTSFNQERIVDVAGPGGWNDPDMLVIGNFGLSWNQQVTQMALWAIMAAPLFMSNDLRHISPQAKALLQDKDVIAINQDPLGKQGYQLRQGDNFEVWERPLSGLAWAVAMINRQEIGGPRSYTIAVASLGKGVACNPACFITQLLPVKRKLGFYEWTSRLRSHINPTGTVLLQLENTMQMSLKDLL
Rango-impB inh – inhibitors of Rango-importin beta complex formation; Potency, µM (titrated, usually from 92.2 µM), without a hit: top-dose inhibition of complex formation; Rango CFP/YFP FRET sensor + importin beta, 45 min; 0.031% of 340,000 active; Q14974; active = rising FRET ratio curve, often small or poorly fitted; inconclusive = mostly compound fluorescence or quenching in the first reads; inactive = flat curves in all reads;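 also: potency is read from the fitted curve at half-maximal effect; 0% = DMSO wells and 100% = buffer wells lacking importin beta; nearly all actives have a fitted effect of over 15% in size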
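Inhibition scored from the CFP 486 nm/YFP 530 nm FRET ratio 45 min after adding 0.125 microM importin beta to 50 nM Rango biosensor preincubated 5 min with compound (room temperature, PBS with DTT, Tween-20, BSA). No-importin wells as positive control.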
* marks the source's active call; other numbers are inactive results; ? = inconclusive; . = no result given; & = joins results of further samples.

(1) CCn1c(=O)c([N+](=O)[O-])c(NCC2CCCO2)c2ccccc21 (stereo unspecified)
(2) Cc1ccc(-n2c(SCC(=O)NCc3ccc4c(c3)OCO4)nnc2-c2cccnc2)c(C)c1
(3) CN(CC(=O)Nc1ccccc1C(F)(F)F)C(=O)c1ccccc1Sc1ccccc1C#N
(4) O=C1NC(=Nc2ccccc2)SC1Cc1ccccc1 (stereo unspecified)
(5) CCOc1cc(S(=O)(=O)n2ccc(C)n2)ccc1Br
(6) CSCCC(NC(=O)c1ccco1)C(=O)Nc1ccc(C)cn1 (stereo unspecified)

compound no.,1,2,3,4,5,6
miR-21 reporter,-1%,-5%,.,0%,-8%,.
Rango release inh,-10%,3%,3%,-5%,-3%,-1%
GLA inh pH 4.5,0,-9,.,-12,-19,.
Rango-impB inh,-1.7%,-0.6%,-0.5%,0.1%,-1.9%,4.6%

(7) Cc1cc(C)nc(SCc2cn3c(C)cccc3n2)n1
(8) O=C(NCC1CCCO1)c1cc2nc(-c3ccco3)cc(C(F)(F)Cl)n2n1 (stereo unspecified)
(9) COc1ccc(S(=O)(=O)Nc2cccc3c2O[C@H](CN(C)Cc2ccc(Cl)c(Cl)c2)[C@@H](C)CN([C@H](C)CO)C3=O)cc1
(10) C=CCNC(=S)/C(=C(/[O-])c1ccccc1Br)[n+]1ccccc1
(11) O=S(=O)(c1ccc(S(=O)(=O)N2CCN3CCCC3C2)cc1)N1CCCC1 (stereo unspecified)
(12) Cc1ccc(-c2nnc(CSc3nc4cc5c(cc4cc3C)OCO5)o2)cc1

compound no.,7,8,9,10,11,12
miR-21 reporter,-20%,0%,.,1%,-12%,-5%
Rango release inh,-8%,-8%,17%,-8%,23%,-22%
GLA inh pH 4.5,2,.,.,-5,2,-3
Rango-impB inh,-3.9%,?,2.5%,-4.2%,6.6%,?

Complete entries as entered above. Screens in order: miR-21 reporter	Rango release inh	GLA inh pH 4.5	Rango-impB inh
Profile of CN(CC(=O)Nc1ccccc1C(F)(F)F)C(=O)c1ccccc1Sc1ccccc1C#N = .	3%	.	-0.5%
Profile of O=C1NC(=Nc2ccccc2)SC1Cc1ccccc1 (stereo unspecified) = 0%	-5%	-12	0.1%
Profile of Cc1ccc(-n2c(SCC(=O)NCc3ccc4c(c3)OCO4)nnc2-c2cccnc2)c(C)c1 = -5%	3%	-9	-0.6%
Profile of O=S(=O)(c1ccc(S(=O)(=O)N2CCN3CCCC3C2)cc1)N1CCCC1 (stereo unspecified) = -12%	23%	2	6.6%
Profile of Cc1cc(C)nc(SCc2cn3c(C)cccc3n2)n1 = -20%	-8%	2	-3.9%

(further entries)
(13) COc1ccc(-n2c(CN3CCOCC3)nc3ccc([N+](=O)[O-])cc3c2=O)c(OC)c1
(14) Cc1cccc(C(=O)Nc2oc(-c3ccccc3)cc2C#N)c1
(15) C#CCOCCOCCOCCNc1nc(N2CCN(C(=O)[C@H](Cc3ccc(O)cc3)n3cc(C(N)CC(C)C)nn3)CC2)nc(N2CCN(C(=O)[C@H](CCC(=O)O)n3cc(C(N)[C@H](C)CC)nn3)CC2)n1 (stereo partly specified)
(16) S=c1[nH]nc(CNc2ccc(Cl)cc2)n1Cc1ccccc1
(17) O=C(Cc1ccc(-n2cccc2)cc1)NCc1ccccc1Cl
(18) CCOC(=O)c1c(NC(=O)CSc2nnc(Cc3ccccc3)o2)sc(C)c1C

compound no.,13,14,15,16,17,18
miR-21 reporter,-3%,-6%,0%,12%,13%,-9%
Rango release inh,4%,-17%,5%,-8%,10%,-8%
GLA inh pH 4.5,.,6,3,1,-4,-2
Rango-impB inh,-1.0%,0.7%,0.1%,-0.5%,-0.7%,0.8%

(19) Cn1c(=O)n(C)c2cc(NS(=O)(=O)c3ccc4c(c3)CCCC4)ccc21
(20) COC(=O)C(C)Sc1nnc(-c2ccncc2)o1 (stereo unspecified)
(21) CCc1noc(C)c1C(=O)N(CC)CC(=O)Nc1cc(Cl)ccc1C
(22) Cc1nc(SCC2(C)CC2(Cl)Cl)n[nH]1 (stereo unspecified)
(23) CC(C)(C)Nc1nc(OCC(F)(F)F)nc(OCC(F)(F)F)n1
(24) Cc1nn(CC(=O)NCCCc2ccccc2)c(=O)c2cccn12

compound no.,19,20,21,22,23,24
miR-21 reporter,18%,-7%,.,-16%,-9%,0%
Rango release inh,-7%,15%,1%,11%,-13%,13%
GLA inh pH 4.5,4,-14,.,1,0,.
Rango-impB inh,1.6%,-1.7%,0.6%,2.8%,0.2%,-0.5%

(25) COc1cc(CCCN2CCNC[C@H]2Cc2ccc(O)cc2)cc(OC)c1OC
(26) Cc1cccc(C(=O)NNC(=O)c2ccccc2O)c1
(27) CC(=O)O/N=C1\C(=O)N(Cc2ccc(C)cc2)c2ccccc21
(28) O=C(c1ccc2[nH]c3c(c2c1)CCCC3)N1CCN(c2ccc(F)cc2)CC1
(29) CC(C(=O)NC1CCCC1)N(Cc1ccc2c(c1)OCO2)C(=O)c1snc(C(N)=O)c1N (stereo unspecified)
(30) O=C(CNC(=O)c1cccs1)c1ccc(F)cc1

compound no.,25,26,27,28,29,30
miR-21 reporter,.,-21%,-3%,-13%,-10%,-29%
Rango release inh,1%,-1%,-3%,-10%,-15%,6%
GLA inh pH 4.5,.,.,-5,-7,-4,8
Rango-impB inh,3.6%,1.5%,0.7%,?,-0.5%,1.1%

(31) C/C(=N/NC(=O)C(O)(c1ccccc1)c1ccccc1)c1ccc([N+](=O)[O-])o1
(32) COCc1c(C(=O)OCc2nc(N)nc(Nc3ccccc3C)n2)oc2ccccc12
(33) COC(=O)[C@H](C)NC(=O)COc1ccccc1
(34) C=CCSc1nnc(-c2ccc(Cl)cc2Cl)o1
(35) O=C(COc1ccccc1F)NC1CC1
(36) CCc1nnc(NC(=O)C2=CCN(S(=O)(=O)c3ccccc3)CC2)s1

compound no.,31,32,33,34,35,36
miR-21 reporter,22%,9%,-2%,-43%,-14%,2%
Rango release inh,14%,3%,15%,5%,10%,20%
GLA inh pH 4.5,-6,-3,-4,9,1,2
Rango-impB inh,-0.3%,-0.5%,8.4%,-0.5%,-5.2%,0.4%

(37) O=C(N/N=C1\CC2CC=CC12)c1ccc(O)cc1 (stereo unspecified)
(38) Cc1ccc(C)c(C(=O)COC(=O)c2nn(C)c(=O)c3ccccc23)c1
(39) CCCCN(CCCC)C(=O)CN(C)S(=O)(=O)c1ccc2c(c1)n(C)c(=O)c(=O)n2C
(40) Cc1ccc(C)c2nc(SCC(=O)N3CCCc4ccccc43)c(C#N)cc12
(41) Cc1ccc(S(=O)(=O)/N=C(/Nc2nc(C)cs2)c2ccccc2)cc1
(42) COc1ccc(NC(=O)/C=C/c2ccc(S(=O)(=O)N3CCOCC3)cc2)cc1

compound no.,37,38,39,40,41,42
miR-21 reporter,-32%,.,-3%,-1%,.,.
Rango release inh,-6%,2%,1%,4%,-2%,2%
GLA inh pH 4.5,2,.,-6,-8,.,.
Rango-impB inh,4.6%,-3.2%,0.4%,7.6%,1.3%,1.1%

(43) COC(=O)C1=C(N)OC2=C(C(=O)CCC2)C1c1ccccc1OC (stereo unspecified)
(44) CCSc1ncc(/C=N/Nc2ccccc2)n1C
(45) [N-]=[N+]=NC(c1ccccc1)c1nc2ccccc2[nH]c1=O (stereo unspecified)
(46) COc1ccc(C(=O)CC(=O)C(=O)Nc2ccc(C)c(C)c2)cc1
(47) C=CCN(CC=C)C(=S)Nc1ccc(OC)c(OC)c1
(48) COCCn1ccc2c(OCC(=O)Nc3cc(OC)ccc3OC)cccc2c1=O

compound no.,43,44,45,46,47,48
miR-21 reporter,1%,-23%,-10%,-19%,3%,.
Rango release inh,1%,-14%,2%,-12%,?,0%
GLA inh pH 4.5,-4,-8,.,.,2,.
Rango-impB inh,0.2%,-3.7%,1.5%,3.4%,3.7%,0.1%

(49) O=C(NCc1cccs1)c1noc2c1CCCC2
(50) COC(=O)CSc1nnc(CNc2ccc(Cl)cc2)n1-c1ccccc1
(51) Cc1ccc(NC(=O)COC(=O)c2ccc(S(=O)(=O)N3CCCC3)cc2)cc1
(52) Cc1noc(C)c1NC(=O)N(C)C[C@H]1Oc2ccc(NC(=O)C3CC3)cc2C(=O)N([C@H](C)CO)C[C@@H]1C
(53) CC(C)(C)[C@H]1COC(=O)CC/C=C\C[C@H](CC(=O)N(CCO)Cc2ccccc2)C(=O)N1
(54) Nc1cnccc1Oc1cccc(C(F)(F)F)c1

compound no.,49,50,51,52,53,54
miR-21 reporter,11%,-5%,.,.,.,.
Rango release inh,8%,6%,0%,10%,4%,16%
GLA inh pH 4.5,0,-19,.,.,.,.
Rango-impB inh,-3.8%,0.5%,-1.8%,0.0%,-3.2%,-6.1%

Molecules from the list above that have a thiophene ring, fused or not (3):
(18) CCOC(=O)c1c(NC(=O)CSc2nnc(Cc3ccccc3)o2)sc(C)c1C
(30) O=C(CNC(=O)c1cccs1)c1ccc(F)cc1
(49) O=C(NCc1cccs1)c1noc2c1CCCC2

compound no.,18,30,49
miR-21 reporter,-9%,-29%,11%
Rango release inh,-8%,6%,8%
GLA inh pH 4.5,-2,8,0
Rango-impB inh,0.8%,1.1%,-3.8%

Remaining list, next part.
(55) COc1ccc(NC(=O)C2=Cc3ccccc3OC2)cc1
(56) Cc1ccccc1-c1nc(SCc2ccccn2)c2c(=O)n(C)c(=O)n(C)c2n1
(57) COc1ccc(C)cc1NC(=O)Cn1cnnn1
(58) N=c1c(-c2nc3ccccc3[nH]2)cc(C(=O)c2ccco2)nn1-c1ccccc1
(59) CS(=O)(=O)N1CC(C(=O)NN)Oc2ccc(Cl)cc21 (stereo unspecified)
(60) CC(NCc1ccc(-c2ccccc2)cc1)C(O)c1ccccc1 (stereo unspecified)

compound no.,55,56,57,58,59,60
miR-21 reporter,-13%,6%,0%,-8%,-5%,?
Rango release inh,-1%,20%,10%,6%,-4%,1%
GLA inh pH 4.5,-14,6,-13,-10,-1,-11
Rango-impB inh,-1.0%,3.2%,-4.3%,0.7%,-0.6%,2.4%

(61) CC(C)=CCCC1(C)C=Cc2c(c(C)cc3c2[nH]c2cc(O)ccc23)O1 (stereo unspecified)
(62) CCOc1ccc(N(CC(=O)NC2CCCCC2)S(=O)(=O)c2ccccc2)cc1
(63) O=C(CCc1nc2ccccc2c(=O)[nH]1)N1CCN(S(=O)(=O)c2cccc(F)c2)CC1
(64) Cc1cc(C)n(C(C)CNS(=O)(=O)c2ccccc2)n1 (stereo unspecified)
(65) C/C(N)=C(/C#N)C(=O)COC(=O)CNC(=O)c1ccc(Cl)cc1Cl
(66) CCOC(=O)c1cnn(-c2ccccc2)c1NC(=O)c1ccccc1

compound no.,61,62,63,64,65,66
miR-21 reporter,11%,-1%,0%,1%,-5%,2%
Rango release inh,19%,20%,2%,2%,-19%,-1%
GLA inh pH 4.5,-7,.,.,.,-3,-9
Rango-impB inh,3.4%,0.0%,0.7%,0.0%,-0.1%,-0.9%

(67) CSc1nnc2c(=O)[nH]c(=O)n(C)c2n1
(68) NS(=O)(=O)c1ccc2c(c1)C(=NO)c1cc(S(N)(=O)=O)ccc1-2
(69) Cc1ccc(CN=c2c([N+](=O)[O-])nn(-c3cccc(Cl)c3)n2O)cc1
(70) Cn1nccc1C(=O)N1CCN(c2ccccc2Cl)CC1
(71) O=C(CSc1nnc(-c2ccoc2)o1)N1CCOCC1
(72) Cc1nnc(NC(=O)CSc2nccn2Cc2ccc(F)cc2)s1

compound no.,67,68,69,70,71,72
miR-21 reporter,.,-4%,-6%,-6%,4%,2%&-11%
Rango release inh,29%,10%,-13%,4%,1%,0%
GLA inh pH 4.5,.,.,-4,.,6,.
Rango-impB inh,2.5%,4.1%,0.0%,0.0%,-1.4%,-0.2%

Only part of the results is shown; the hit share may differ from the screen's.
